Screens as filed in PubChem.
Sa ugtP lethal = compounds lethal to S. aureus RN4220 ugtP deletion mutant; OD600 growth, 16 h; some inactives read as strong as hits; growth inhibition, % (no concentration beside the values); 0.54% of 330,000 active; AID 1259309;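 active = z-score under -3 and OD600 up to 0.15 on both plates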;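 also: plate controls were untreated wells for no effect and antibiotic for full effect; wells of about 80 µL received 100 nL stock; the first replicate is given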
BJeLR lethal = BJeLR cell viability loss; BJeLR (HRASV12) viability, CellTiter-Glo ATP luminescence, 48 h; reference of the scale not given here; inhibition, % (test concentration not listed); 0.17% of 300,000 active;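 active = replicate mean above 50%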;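 also: 50 nL library stock added to about 25 µL; numbers are from one replicate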
RN4220 kill = kills Staphylococcus aureus RN4220; 0.33% of 330,000 active; S. aureus RN4220 growth, OD600, 16 h; inhibition, % (test concentration not listed); AID 1259311;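 active = z-score of -3 or lower and OD600 up to 0.18 on both plates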;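 also: plate controls were untreated cells for no effect and reference antibiotic for full effect; stock transfer was 100 nL into about 80 µL; one replicate is shown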
Bead autofluor = flagged as autofluorescent in microsphere protease counterscreen. fluorescence intensity (no concentration beside the values). compound autofluorescence counterscreen, microsphere flow cytometry; hits give high values. AID 624483. 3.1% of 360,000 active;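 active = at least 3 SD above the mean of all compounds, about 16000 in these data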;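 also: 100 nL of 1 mM stock went into each well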
Mtb hypoxia inh = inhibitors of hypoxia-regulated fluorescent reporter in Mycobacterium tuberculosis; M. tuberculosis hypoxia-regulated fluorescent reporter, fluorescence; fluorescence inhibition, % (no concentration beside the values); 0.1% of 300,000 active; AID 1159583;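 active = 35 to 45% if threefold the growth effect, above 45% if 1.5-fold the growth effect; inactive = the rest, general growth blockers included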;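 also: wells of about 50 µL received 100 nL stock; 0% = vehicle wells and 100% = reference inhibitor wells; whole bacteria with a GFP reporter of the hypoxia response; strong numbers were not always called active; many hits fall short of the cut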
PrP UTR inh = suppresses PrP 5' UTR mRNA reporter expression. cell-based PrP 5' UTR mRNA reporter, plate reader. inhibition, % (no concentration beside the values). 0.35% of 340,000 active. AID 488862;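 active = every replicate at 50% or more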;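 also: 0 = median of the neutral control wells; tested in H4 reporter cells; numbers are from one replicate; inactives centre near -14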
Mtb hypoxia inh growth = also measured in Mtb hypoxia inh; calls as there; growth inhibition, %; measured here: M. tuberculosis growth (absorbance);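 0% = vehicle and 100% = reference antibiotic; read after six days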
* = called active by the depositor; x = no result given; & = joins results of further samples.

Short keys: A = Sa ugtP lethal; B = BJeLR lethal; C = RN4220 kill; D = Bead autofluor; E = Mtb hypoxia inh; F = Mtb hypoxia inh growth; G = PrP UTR inh
O=c1oc(/C=C/c2ccccc2)nc2ccccc12
  A: -1	B: 6	C: 7.4	D: 3734	E: 17	F: 19	G: -48

COc1ccc(Cn2c(=O)sc3ccccc3c2=O)cc1
  A: 2	B: x	C: -2.8	D: 4183	E: -5	F: -4	G: -19

CCN1CCN(c2ccc(S(=O)(=O)N3CCCCC3)cc2NC(=O)/C=C/c2cc(OC)ccc2OC)CC1
  A: 8	B: 1	C: 0.3	D: 7430	E: -2	F: 4	G: -5

Cc1ccc(NC(=O)Nc2c(Cl)cccc2Cl)cn1
  A: x	B: -6	C: x	D: 3008	E: x	F: x	G: -27

O=C(CSc1ccccc1)Nc1cccc(S(=O)(=O)N2CCCC2)c1
  A: 5	B: 2	C: 2.6	D: 6987	E: 2	F: 10	G: -44

CC(=O)c1ccc(-c2nnc(CCC(=O)N(C)Cc3cccc4cnccc34)o2)s1
  A: 8	B: 3	C: 0.0	D: 3653	E: 7	F: 11	G: -13

CC(CCc1ccc(O)cc1)NCCc1ccc(O)c(O)c1 (stereo not given)
  A: -1	B: 0	C: 16	D: 4086	E: 8	F: 6	G: -2

O=C(COc1ccccc1Br)N1CCN(C(=O)c2ccco2)CC1
  A: 6	B: -6	C: 1.8	D: 4330	E: -5	F: -3	G: -3

CCC(=NCc1ccco1)c1c(O)n(-c2ccccc2C)c(=O)[nH]c1=O
  A: -13	B: -5	C: -4.2	D: 3689	E: -6	F: 0	G: -19

CCc1ccc(NC(=O)c2cc(C)nn2-c2ccccc2)cc1
  A: 19	B: -8	C: 6.4	D: 3911	E: 4	F: 8	G: 6

Cc1nnc(NC(=O)C2(c3ccccc3)CCOCC2)s1
  A: 11	B: 7	C: 6.8	D: 3493	E: x	F: x	G: 0

CCCOC(=O)Nc1cc(OC)c(Cl)cc1OC
  A: 3	B: -3	C: -0.3	D: 4240	E: x	F: x	G: -8

CCC(CO)NCCNC(CC)CO (stereo not given)
  A: -1&-3	B: 1	C: 6.2&8.9	D: 4452	E: x	F: x	G: 2

NC(=O)CSc1nnc(-c2cccc(S(=O)(=O)N3CCOCC3)c2)n1C1CCCCCC1
  A: 1	B: -8	C: 0.6	D: 2220	E: x	F: x	G: -4

Cn1nc2c(c1C(=O)O)CCCC2
  A: 3	B: 4	C: 0.0	D: 3910	E: 11	F: 5	G: -44

COc1ccc(S(=O)(=O)NCCc2csc(-c3cccnc3)n2)cc1
  A: -1	B: -1	C: -9.0	D: 5826	E: 3	F: 9	G: -11

O=C(CCCn1cnc([N+](=O)[O-])n1)Nc1cccc2ccccc12
  A: 7	B: 8	C: -6.4	D: 4775	E: 7	F: 4	G: -32

Cc1ccc2nc(-c3ccc(NC(=S)NC(=O)C(C)C)cc3)sc2c1
  A: 0	B: -15	C: -4.2	D: 8179	E: x	F: x	G: -138

CCn1c(=O)c(=O)n(CC)c2cc(S(=O)(=O)Nc3cc(C)ccc3C)ccc21
  A: 4	B: 6	C: 0.5	D: 4480	E: -10	F: -9	G: -19

O=C(Nc1nnc(-c2ccncc2)s1)Nc1ccccc1F
  A: 0	B: 2	C: 3.7	D: 2944	E: -4	F: 3	G: -42

An excerpt from above in order of number of heavy atoms, ascending:
Short keys: A = Sa ugtP lethal; B = BJeLR lethal; C = RN4220 kill; D = Bead autofluor; E = Mtb hypoxia inh; F = Mtb hypoxia inh growth; G = PrP UTR inh
CCCOC(=O)Nc1cc(OC)c(Cl)cc1OC
  A: 3	B: -3	C: -0.3	D: 4240	E: x	F: x	G: -8

Cc1nnc(NC(=O)C2(c3ccccc3)CCOCC2)s1
  A: 11	B: 7	C: 6.8	D: 3493	E: x	F: x	G: 0

CC(CCc1ccc(O)cc1)NCCc1ccc(O)c(O)c1 (stereo not given)
  A: -1	B: 0	C: 16	D: 4086	E: 8	F: 6	G: -2

O=C(COc1ccccc1Br)N1CCN(C(=O)c2ccco2)CC1
  A: 6	B: -6	C: 1.8	D: 4330	E: -5	F: -3	G: -3

O=C(CSc1ccccc1)Nc1cccc(S(=O)(=O)N2CCCC2)c1
  A: 5	B: 2	C: 2.6	D: 6987	E: 2	F: 10	G: -44

CCC(=NCc1ccco1)c1c(O)n(-c2ccccc2C)c(=O)[nH]c1=O
  A: -13	B: -5	C: -4.2	D: 3689	E: -6	F: 0	G: -19

Further compounds follow:
Short keys: A = Sa ugtP lethal; B = BJeLR lethal; C = RN4220 kill; D = Bead autofluor; E = Mtb hypoxia inh; F = Mtb hypoxia inh growth; G = PrP UTR inh
CCCCn1cc([N+](=O)[O-])nc1C
  A: 7	B: -12	C: 4.9	D: 4471	E: 1	F: 12	G: -24

CSc1ccccc1OCc1cc(C(=O)N(C)Cc2nonc2C)no1
  A: -4	B: -10	C: 4.2	D: 6087	E: -1	F: 2	G: -70

Cn1c(=O)c(/C=C/c2ccccc2)nc2ccccc21
  A: -4	B: -9	C: 5.6	D: 2731	E: -4	F: -12	G: -109

Oc1c(C(c2ccccc2)N2CCc3ccccc3C2)sc2ncnn12 (stereo not given)
  A: 15	B: 4	C: 5.7	D: 6191	E: 8	F: 6	G: -26

Cc1ccc(NC2CCCN(C(=O)CN3C(=O)c4ccccc4C3=O)C2)cc1C (stereo not given)
  A: -3	B: 5	C: 2.1	D: 6246	E: 7	F: 17	G: -18

COC(c1ccccc1)c1nnc(CCC(=O)NCCC(C)C)o1 (stereo not given)
  A: 1	B: 1	C: 2.8	D: 2631	E: -7	F: -9	G: -48

COC(=O)NC1(C(F)(F)F)NC(=O)N(C2CCCCC2)C1=O (stereo not given)
  A: -2	B: -6	C: -1.2	D: 2100	E: x	F: x	G: -2

COc1ccccc1N1CCN(CC(=O)NC(=O)NCc2ccco2)CC1
  A: 4	B: -5	C: -1.0	D: 7127	E: -7	F: -2	G: -20

COCCCNC(=O)c1c(NC(=O)c2cccs2)sc2c1CCCC2
  A: -3	B: 0	C: 1.2	D: 2386	E: x	F: x	G: -10

COC(=O)c1cc(NC(=O)Cc2cccs2)cc(C(=O)OC)c1
  A: 2	B: -3	C: 3.0	D: 4035	E: 10	F: 2	G: -46

CC(NC(=O)Cc1cccc(C(F)(F)F)c1)c1ccc(F)cc1 (stereo not given)
  A: -1	B: -12	C: 2.5	D: 4310	E: -3	F: 2	G: -17

Cc1ccc(-c2ocnc2C(=O)Nc2ccccc2C(=O)N2CCCC2)cc1
  A: 0	B: 9	C: 2.2	D: 4026	E: 11	F: 1	G: -36

O=C(CCn1nnc(-c2cccs2)n1)NC1CCCCC1
  A: -1	B: -2	C: 3.0	D: 8871	E: 15	F: 5	G: -18

CC1CCN(S(=O)(=O)c2ccc(C(C)C)cc2)CC1
  A: -2	B: -7	C: 8.0	D: 3515	E: x	F: x	G: 4

CC1CCN(c2ccc([N+](=O)[O-])cc2C(=O)O)CC1
  A: 0	B: -8	C: 3.2	D: 2129	E: 15	F: 0	G: -22

CCCSc1ccc2nc(-c3ccccc3)cn2c1
  A: -8	B: 33	C: 7.3	D: 2557	E: 5	F: 12	G: 60*

CCOC(=O)c1sc(NC(=O)Cc2ccc(C)cc2)nc1C
  A: 21	B: -2	C: 2.3	D: 2085	E: -15	F: 7	G: -18

O=c1[nH]cnc2c1cnn2Cc1ccccc1
  A: -4	B: x	C: 2.0	D: 21532*	E: 2	F: 5	G: -10

COc1ccc(S(=O)(=O)NC(C)C(=O)Nc2ccc3c(c2)OCO3)cc1OC (stereo not given)
  A: 11	B: 4	C: 0.0	D: 3702	E: 5	F: 1	G: 2

CCC(CC)NC(=O)c1cc2c(C)nn(Cc3ccccc3Cl)c2s1
  A: 9	B: 9	C: -1.5	D: 3410	E: -1	F: 13	G: 1

O=C(CNS(=O)(=O)c1cccs1)N1CCN(c2ccccc2F)CC1
  A: 15	B: 12	C: 1.8	D: 3694	E: -1	F: 6	G: -22

O=C(O)CSc1c(-c2ccccc2)[nH]c2ccccc12
  A: -10	B: -6	C: 5.3	D: 2440	E: 6	F: -1	G: -3

CCOC(=O)c1ccc(NS(=O)(=O)CC)cc1
  A: -4	B: 16	C: 3.6	D: 3835	E: 8	F: 7	G: -9

O=C(COc1ccc(C(F)(F)F)cc1[N+](=O)[O-])Nc1cccc(C(F)(F)F)c1
  A: 5	B: -7	C: 4.5	D: 2380	E: 4	F: 0	G: -6

Cc1cc(C(=O)CN2C(=O)c3ccccc3S2(=O)=O)c(C)n1-c1ccccc1
  A: 12	B: -2	C: 2.3	D: 5007	E: x	F: x	G: 57

COc1ccc(NC(=O)N(Cc2ccc3c(c2)OCO3)C2CC(=O)N(c3ccc(OC)cc3)C2=O)cc1 (stereo not given)
  A: 12	B: 1	C: 0.6	D: 8367	E: 4	F: 2	G: -16

O=C(CS(=O)c1cccc(Cl)c1)Nc1ccccc1Cl (stereo not given)
  A: -1	B: 0	C: 3.6	D: 22003*	E: -9	F: 1	G: -1

CC1CN(C(=S)Nc2cccc(Cl)c2Cl)CC(C)O1 (stereo not given)
  A: 2	B: 2	C: 4.4	D: 5097	E: 2	F: 4	G: -10

O=C(CN1CCN(C(=O)c2ccco2)CC1)Nc1ccccc1
  A: 4	B: -12	C: 6.0	D: 2999	E: -5	F: -4	G: -29

COc1cccc(NC(=O)C2CC(=O)N=C(N)S2)c1 (stereo not given)
  A: 4	B: -1	C: 2.1	D: 2654	E: x	F: x	G: -19

O=C(CSc1ccc(F)cc1)Nc1ccccc1Br
  A: 7	B: -3	C: 6.2	D: 4164	E: 17	F: 7	G: -28

Cc1ccc(-n2cc(CNCCN3CCOC3=O)c(-c3cccc(C)c3)n2)cc1
  A: 12	B: 6	C: -3.3	D: 2629	E: 10	F: 4	G: -28

O=C(CSc1nc(C2CC2)nc2ccccc12)N1CCCCC1
  A: 5	B: -12	C: 7.1	D: 5466	E: 4	F: 1	G: -5

CCC(CC)N1CCN(C(=O)c2cc(OC)c(OC)c(OC)c2)CC1
  A: 4	B: 8	C: 2.2	D: 3546	E: 4	F: -1	G: -10

C=CCOC(=O)C1=C(C)NC(SCC(=O)NC(=O)OCC)=C(C#N)C1c1cccnc1 (stereo not given)
  A: 10	B: 8	C: 6.0	D: 3281&7805	E: 4	F: 6	G: -41&2

O=C(CCS(=O)(=O)Cc1ccccc1)NCc1ccco1
  A: 6	B: -1	C: 3.2	D: 10402	E: 6	F: 2	G: -12

CC(C)(C)OC(=O)CCC(C(=O)NCCCCCCCCCCC(=O)N1CCN(C(=O)OC(C)(C)C)CC1)n1cc(CCCCCNC(=O)OC(C)(C)C)nn1 (stereo not given)
  A: -9	B: x	C: -2.6	D: x	E: 5	F: 9	G: x

COc1ccc(N2CC(C(=O)N3CCC(c4nc5ccccc5[nH]4)CC3)CC2=O)cc1 (stereo not given)
  A: 7	B: -1	C: 0.6	D: 4731	E: -9	F: 2	G: -22

CC(=O)N1CC(C)Oc2ccc(S(=O)(=O)NC(CC(=O)O)c3ccccc3C)cc21 (stereo not given)
  A: 11	B: -6	C: 2.4	D: 5665	E: 6	F: 2	G: -2

O=C(CCl)Oc1ccc2occ(C(=O)c3cccs3)c2c1
  A: 5	B: -8	C: 11	D: 2835	E: 6	F: 7	G: -106

CCC(=O)c1ccc(OCC(O)CN2CCCCC2)cc1 (stereo not given)
  A: 10	B: -12	C: 3.1	D: 7895	E: 6	F: 1	G: -4

CSc1nnc2ccc(-c3ccc(C)cc3)nn12
  A: -6	B: 3	C: 3.0	D: 4501	E: 6	F: 2	G: 1

NC(=O)COC(=O)CSc1ccc2ccccc2c1
  A: 4	B: -43	C: -4.3	D: 4026	E: 10	F: 3	G: -9

CCCCCCCCC(=O)NCCOc1ccc(OC)cc1
  A: 8	B: 5	C: 1.3	D: 2569	E: 7	F: -4	G: -12

Cc1ccccc1C1CCCN(Cc2nc(C3CC3)no2)C1 (stereo not given)
  A: 2	B: 3	C: 6.4	D: 2167	E: 17	F: 6	G: -12

CCOc1cc(CNCc2ccccn2)ccc1OCC(=O)NC1CCCCC1
  A: 0	B: 4	C: 2.8	D: 2430	E: 9	F: -4	G: -8

CCN(CCO)Cc1cc(=O)oc2cc3c(cc12)CCC3
  A: 0	B: -20	C: -1.3	D: 3976	E: 4	F: 0	G: -36

O=C(CSc1cccc[n+]1[O-])NC1CCCCCCC1
  A: 2	B: 2	C: 1.9	D: 4233	E: 7	F: 0	G: -19

CN(CCCNC(=O)CSc1cc(=O)n(C)c2cc(Cl)ccc12)Cc1ccccc1
  A: 4	B: 3	C: 3.1	D: 2307	E: -11	F: -10	G: -10

CCn1c(COc2ccccc2OC)nnc1SCC(=O)NC1CCCC1
  A: 1	B: -3	C: 1.8	D: 5585	E: -12	F: 0	G: -2
